# Screening results as filed in PubChem BioAssay.
# Six1-Eya2 inh – inhibitors of human Six1/Eya2 interaction. Q15475+O00167. AlphaScreen GST-Six1/His-Eya2 binding, biochemical; hits give low values; control for the full effect not named in the record. activity change, % (no concentration beside the values). 0.56% of 360,000 active. AID 651725; in the data active = activity change below about -65%; inconclusive = about -30% to -65%; inactive = above about -30%; also: % is scaled to controls: 0 for no effect and ±100 for the full control effect; compound concentration not given in the record
#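 Homogeneous AlphaScreen proximity assay pairing GST-Six1 with His-tagged Eya2 (added as 5X mix: 250 nM and 500 nM) in 50 mM Tris pH 8.0, 300 mM NaCl, 1 mM TCEP. Glutathione donor and nickel acceptor beads; 1 h, 37 °C, dark.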
# D2 potentiator – human D2 receptor positive allosteric modulation; potentiation, % (no concentration beside the values); 0.23% of 360,000 active; P14416; DiscoveRx D2 beta-arrestin cells, luminescence, 90 min; 100% = 57 uM dopamine signal; active = potentiation of 50% or more; inconclusive = 30% to 50%; inactive = 30% or less;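 also: compound concentration not given in the record; tested on top of an EC20 dose of dopamine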
# Target sequence (P14416 whole entry, looked up): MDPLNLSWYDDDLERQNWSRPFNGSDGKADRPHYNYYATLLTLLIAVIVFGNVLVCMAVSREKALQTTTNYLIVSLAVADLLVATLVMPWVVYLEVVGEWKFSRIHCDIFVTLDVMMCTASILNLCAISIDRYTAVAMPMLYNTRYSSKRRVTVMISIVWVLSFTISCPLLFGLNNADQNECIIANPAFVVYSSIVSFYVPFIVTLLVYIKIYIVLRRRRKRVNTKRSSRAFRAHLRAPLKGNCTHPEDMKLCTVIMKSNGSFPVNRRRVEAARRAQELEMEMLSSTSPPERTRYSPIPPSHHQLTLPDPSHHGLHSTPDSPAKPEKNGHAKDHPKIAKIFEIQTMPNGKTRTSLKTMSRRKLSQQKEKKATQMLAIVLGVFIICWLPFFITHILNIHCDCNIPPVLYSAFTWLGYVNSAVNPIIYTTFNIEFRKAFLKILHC
#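 PathHunter D2 cells, attached overnight at 37 deg C, received compound in DMSO plus dopamine at EC20 (50 nM final) for 90 min at 37 deg C. Beta-arrestin recruitment was read as luminescence after 1 h with detection reagent at ambient temperature.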
# TRPML1 ag – agonists of human TRPML1 channel; Q9GZU1; TRPML1-expressing cells, Ca2+ dye fluorescence, FDSS; host cell line not named in the record; reference of the full effect not given here; activation, % (concentration not given with the values); 0.12% of 410,000 active; in the data active = activation above about 50%; inconclusive = about 30% to 50%; inactive = below about 30%; also: 0% is about no effect; the text of the record puts the active cut at 80%
# Target sequence (Q9GZU1 whole entry, looked up): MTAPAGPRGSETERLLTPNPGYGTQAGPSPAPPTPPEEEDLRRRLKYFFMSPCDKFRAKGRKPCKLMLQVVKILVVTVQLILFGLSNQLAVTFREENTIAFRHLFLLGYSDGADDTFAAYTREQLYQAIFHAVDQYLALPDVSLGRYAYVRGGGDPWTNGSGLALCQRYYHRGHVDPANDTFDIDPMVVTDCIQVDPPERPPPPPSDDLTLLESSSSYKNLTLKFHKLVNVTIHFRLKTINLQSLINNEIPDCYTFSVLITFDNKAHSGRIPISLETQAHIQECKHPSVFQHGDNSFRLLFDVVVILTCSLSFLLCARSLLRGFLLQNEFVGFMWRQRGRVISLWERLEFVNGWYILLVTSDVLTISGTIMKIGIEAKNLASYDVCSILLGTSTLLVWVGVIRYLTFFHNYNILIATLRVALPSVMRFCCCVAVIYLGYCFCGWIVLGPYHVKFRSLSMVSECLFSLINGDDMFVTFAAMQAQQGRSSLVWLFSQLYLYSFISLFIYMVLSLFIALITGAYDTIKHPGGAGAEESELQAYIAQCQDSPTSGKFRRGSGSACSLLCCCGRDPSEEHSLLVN
#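 Calcium fluorescence on an FDSS kinetic reader gave the read-out. Tet-induced TRPML1-DL cells were plated overnight, dye-loaded (Ca8 with quencher, 45-90 min, room temperature, dark), then read 110 s after compound addition, and again 110 s after 4uM final 54-4 (EC80).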
# PINK1 modulator – changes PINK1 expression; PINK1 immunofluorescence, high-content cytometry, 24 h; Potency, µM (top dose mostly 76.6 µM), for the others: at the highest dose activation (PINK1 increase), most hits filed as activators; 0.2% of 410,000 active; active = well fitted activation curve with a large enough effect; inconclusive = small, poorly fitted or top-dose-only effect; inactive = flat fitted curve, though single readings scatter; cell line not stated here;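 also: potency is read from the fitted curve at half-maximal effect; % of control where 0% means no effect; nearly all actives have a fitted effect of over 65% in size; a mitochondrial uncoupler was the plate control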
#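 Fluorescence from anti-PINK1 antibody, together with nuclear and cell stains, was scanned on a laser-scanning cytometer. Before staining, stable-line cells were incubated 24 hours with compounds at 5 concentrations; primary antibody 12 h at 10 degrees C.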
# TRPML1 inh – human mucolipin-1 channel inhibition | TRPML1-inducible cells, Ca2+ dye fluorescence, FDSS; hits give low values; inhibition of EC80 agonist-evoked calcium signal | 0.02% of 390,000 active | activity change, negative = inhibition, % (no concentration beside the values) | Q9GZU1; in the data active means activity change below about -50%; inconclusive means about -30% to -50%; inactive means above about -30%;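 also: stimulus is agonist 54-4 at its EC80 concentration; % is scaled to controls: 0 for no effect and ±100 for the full control effect; compound concentration not given in the record; the text of the record puts the active cut at -80%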
#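 Tet-induced TRPML1-DL cells loaded with Ca8 no-wash calcium dye were read kinetically on FDSS. Compound addition was followed by EC80 agonist 54-4 (4 uM final); inhibition was read over 110 s.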
# D2 ag – agonists of human D2 dopamine receptor (beta-arrestin); DiscoveRx PathHunter D2 beta-arrestin, luminescence, 90 min; 100% = 57 uM dopamine signal; 0.084% of 360,000 active; activation, % (test concentration not listed); P14416; in the data active = activation above about 40%; inconclusive = about 15% to 40%; inactive = below about 15%; also: compound concentration not given in the record; the text of the record calls up to 30% inactive
#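 Agonist mode: compounds alone added to overnight-plated D2 PathHunter cells for 90 min at 37 C, with 57 uM final dopamine (EC100) defining full response. Beta-arrestin recruitment detected by chemiluminescent reagent, read after 1 h at ambient temperature.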
# * = called active by the depositor; ? = inconclusive; . = not tested or not shown; [ ] = dose if it differs, or a comment. Rows are unselected (roughly 1% active in at least one column).
# A first look:
SMILES,Six1-Eya2 inh,D2 potentiator,TRPML1 ag,PINK1 modulator,TRPML1 inh,D2 ag
CCN(CC)CCCCCCCCOC(=O)c1cc(OC)c(OC)c(OC)c1,-1.4,-20.4,0.8,0.1%,-12.3,-4.1
Cc1c(CNCCCc2ccccc2)c(C(=O)O)c(C)n1Cc1ccccc1,-6.3,-14.8,0.2,0.6%,-10.7,-2.0
Nc1nc(NCC2CCCO2)nc(Nc2ccc(F)cc2)c1[N+](=O)[O-] (configuration not stated),2.3,3.7,5.9,7.9%,21.3,-0.4
CC(=O)Nc1ccc(/C(C)=N/NC(=O)c2ccc(COc3ccccc3Cl)o2)cc1,-13.2,-5.6,-0.8,2.9%,6.0,4.3
CN1CCN(CCC(=O)Nc2ccc(Cl)cc2)CC1,.,.,0.0,0.6%,-2.3,.

# This part in full, from the start:
SMILES,Six1-Eya2 inh,D2 potentiator,TRPML1 ag,PINK1 modulator,TRPML1 inh,D2 ag
CCN(CC)CCCCCCCCOC(=O)c1cc(OC)c(OC)c(OC)c1,-1.4,-20.4,0.8,0.1%,-12.3,-4.1
Cc1c(CNCCCc2ccccc2)c(C(=O)O)c(C)n1Cc1ccccc1,-6.3,-14.8,0.2,0.6%,-10.7,-2.0
Nc1nc(NCC2CCCO2)nc(Nc2ccc(F)cc2)c1[N+](=O)[O-] (configuration not stated),2.3,3.7,5.9,7.9%,21.3,-0.4
CC(=O)Nc1ccc(/C(C)=N/NC(=O)c2ccc(COc3ccccc3Cl)o2)cc1,-13.2,-5.6,-0.8,2.9%,6.0,4.3
CN1CCN(CCC(=O)Nc2ccc(Cl)cc2)CC1,.,.,0.0,0.6%,-2.3,.
CC(OC(=O)C1CSC2(C)CCC(=O)N12)C(=O)Nc1cccc(C#N)c1 (configuration not stated),1.3,-3.8,-0.4,1.7%,-0.7,-13.8
CCOC(=O)Cc1ccc(NC(=O)Nc2cc3c(cc2N2CCCCC2)n(C)c(=O)n3C)cc1,.,.,1.4,2.4%,21.6,.
COc1ccc(N2CCN(C(=O)CN(C)S(=O)(=O)c3cc(C)ccc3OC)CC2)cc1,-3.1,3.9,-0.2,0.6%,-0.3,0.5
CC1CCCCC1NC(=O)CNC(=O)c1ccco1 (configuration not stated),12.9,-9.2,0.0,2.3%,-15.9,-3.1
CCOc1ccc(C(=O)OCC(=O)NCC2CCCO2)cc1 (configuration not stated),-3.3,-0.6,2.2,0.5%,-1.3,7.2
CCOc1ccc(NC(=S)N2CCN(c3ccc(N4CCOCC4)nn3)CC2)cc1,7.7,-0.9,0.4,0.0%,-8.1,-2.0
O=c1[nH]c(Nc2nc3ccccc3o2)nc2c1CCCC2,23.8,-1.0,1.9,8.8%[38.3 µM],10.8,2.4
Cc1cc(N2C(=O)C(O)=C(C(=O)c3cccs3)C2c2ccccc2)no1 (configuration not stated),-0.9,-2.6,1.0,3.9%[38.3 µM],12.6,-4.6
c1ccc(C2NCCNC2c2ccccc2)cc1 (configuration not stated),-1.8,3.2,0.6,0.3%,18.1,0.5
CC(C)(C)NC(=O)NC(=O)CSc1ncn[nH]1,5.9,-6.2,-0.2,-0.3%,-3.0,5.0
Cn1ccnc1SCC(=O)Nc1cc(Cl)ccc1Cl,.,.,1.9,-0.2%,22.5,.
Cc1ccc(NC(=O)C2CCCN2C(=O)Oc2ccccc2)cc1 (configuration not stated),4.1,-15.7,0.6,4.1%,-2.5,0.4
COc1ccc(CC(=O)Nc2ccc(S(=O)(=O)N3CCOCC3)cc2)cc1,5.8,1.4,0.1,-2.7%,0.9,2.3
CCc1nnc2c(NCc3cccc(OC)c3)nc3ccccc3n12,.,.,1.5,-2.0%,-2.4,.
CCOC(=O)/C(=N\Nc1ccccc1Cl)N(C)C1CCCCC1,-8.4,-3.9,3.5,3.5%,-8.1,5.1
CCOc1ccc(S(=O)(=O)N2CCCC(C(=O)NCCN3CCOCC3)C2)cc1Cl (configuration not stated),2.8,-5.2,1.3,-1.3%,-11.7,-2.7
CN(CCO)c1ccc2c(c1)OC[C@@H](Cc1ccccc1)NS2(=O)=O,-0.9,.,0.0,2.9%,.,.
CC(C)C(NS(=O)(=O)c1ccc2c(c1)oc(=O)n2C)C(=O)NCc1ccccc1 (configuration not stated),.,.,-0.1,0.9%,-9.6,.
Cc1ccc(C)c(C(=O)CCC(=O)OCn2nnc3ccccc3c2=O)c1,5.0,-1.7,-0.6,0.5%,1.5,-2.4
Cc1ccc(S(=O)(=O)N(CC(=O)Nc2ccccc2-c2ccccc2)c2ccc(C)cc2C)cc1,-1.6,-15.4,1.4,4.9%,54.5,-1.4
Cc1ccc(C(=O)CC2(O)C(=O)N(Cc3ccccc3F)c3ccccc32)cc1 (configuration not stated),.,.,3.6,-1.1%,-12.4,.
COc1ccccc1NC(=O)Cc1noc(CSc2n[nH]c(N)n2)n1,-1.1,-8.5,0.0,3.2%,28.0,-3.9
NC(=O)CC(NC(=O)c1ccc(Br)cc1)c1ccc(NC2CCCCCCC2)c([N+](=O)[O-])c1 (configuration not stated),-23.0,-5.4,-0.5,8.1%,6.6,-1.6
COc1ccc2c(c1)nc(N)n2Cc1ccccc1,-10.5,-14.7,-0.2,0.4%,-14.3,-3.1
CC(=O)c1ccc(CCCc2ccc(C(C)=O)cc2)cc1,12.0,-3.7,2.8,2.5%,50.4,-0.8
CC1CC(C)CN(C(=O)COC(=O)c2ccc3ccccc3n2)C1 (configuration not stated),3.2,-11.5,0.1,0.3%,-14.8,-0.2
O=C(O)Cc1coc2ccc3ccccc3c12,3.2,0.9,-0.3,?,15.8,0.2
O=C(CO/N=C/c1ccccc1O)N1CCc2ccccc21,-2.9,-13.6,-0.7,2.2%,12.5,-1.2
O=C1C(=NO)CCc2ccccc21,-10.9,79.9*,0.8,-1.6%,18.8,?
O=C(OCc1ccccc1F)c1cc2ccccc2cc1O,21.4,0.5,-0.3,20.4%,19.9,0.4
CC1(C(=O)NCc2ccc3c(c2)OCO3)CCN1C(=O)Cc1ccc(Cl)cc1Cl (configuration not stated),0.3,3.1,-1.2,1.8%,.,6.7
CCC(C)NC(=O)CCc1nnc2ccc(N3CCC(C)CC3)nn12 (configuration not stated),-0.5,-13.1,1.0,-0.9%,47.4,1.2
CC(=O)Nc1ccc(-c2csc(N/N=C(/C)c3ccccc3)n2)cc1,-10.5,-3.0,-0.5,9.2%,6.7,1.6
O=C(Nc1ccncc1)c1cc(S(=O)(=O)N2CCCCC2)ccc1Cl,-0.6,-3.4,1.3,3.1%,6.8,-1.3
O=C(NCCCn1ccnc1)c1cc(-c2cccc(O)c2)on1,-11.4,-23.5,0.1,1.2%,13.8,-1.2
O=C(C1Cc2ccccc2CN1S(=O)(=O)c1ccc(F)cc1)N1CCCCCC1 (configuration not stated),-7.4,-11.2,-1.3,-2.8%,-2.1,-3.1
CCCS(=O)(=O)c1c(S(=O)(=O)CCC)c2ccc(C(N)=O)cn2c1C(=O)c1ccc(F)cc1,4.2,-2.7,0.1,0.2%,6.4,1.8
CNC(=O)/C(=C\c1ccc([N+](=O)[O-])cc1)NC(C)=O,-1.5,-11.0,-0.5,6.1%,-7.0,0.0
CC1(C)CC(=O)C(C(=O)Cc2ccccc2[N+](=O)[O-])C(=O)C1,4.8,3.4,-0.1,2.7%,-5.9,-2.6
O=C(N/N=C/c1ccc([N+](=O)[O-])o1)c1cn2ccc3ccccc3c2n1,-8.4,12.9,0.5,12.7%,13.4,5.1
CC(=O)NC(CC(=O)Nc1ccc(S(=O)(=O)N2CCCC2)cc1)c1ccccc1 (configuration not stated),0.9,-22.5,1.0,-1.6%,-18.5,-1.9
Nc1nc(CSc2nc3ccccc3s2)nc(N2CCCCC2)n1,3.3,-36.9,-0.7,7.8%,0.8,0.4
CN(Cc1ccccc1)c1ncnc2ccc(Br)cc12,9.9,-7.2,-1.4,-0.4%,-5.6,0.5
O=C1CC2(CCCC2)C(=O)N1c1ccc(S(=O)(=O)NCC2CC2)cc1Cl,2.7,-6.5,0.6,1.4%,-1.9,-2.2
CS(=O)(=O)N1CCN(c2ccc(NC(=O)COc3ccccc3)cc2)CC1,0.2,-1.0,-0.9,1.1%,16.2,-5.3
COC(=O)c1cc(S(=O)(=O)N2CCN(c3ccc(OC)cc3)CC2)c[nH]1,.,.,-0.4,-0.4%,-10.5,.
O=C(O)c1cc(NN=C2CCN(Cc3ccccc3)CC2)ccc1Cl,4.0,-11.9,0.5,-0.5%,-2.5,-2.5
Cc1ccnc(NC(=O)CNC(=O)c2ccc3ccccc3c2)c1,-11.3,-7.8,0.1,6.3%,-9.9,-0.8
CCN(CC)C(=O)[C@H]1CC(CC(=O)NCCN2CCOCC2)C(=O)N2CCc3c([nH]c4ccc(OC)cc34)[C@]12C (some centres not stated),0.0,.,-0.4,-0.9%,-3.3,2.2
CCN(CC)CCSc1nnc(Nc2ccccc2)n1-c1ccccc1,1.3,-25.8,-0.4,-0.6%,-11.4,-2.5
CCOC(=O)N1CCN(C(=O)C(C)(C)Oc2ccc(Cl)cc2)CC1,2.3,3.4,0.0,0.7%,-5.4,2.2
Cc1ccc(-n2nc(CN3CCOCC3)c(-c3ccccc3)c2N)c(C)c1,7.9,-2.5,0.2,-1.1%,14.1,-3.4
COc1ccc(OC)c(-c2nn(-c3ccccc3)cc2C(=O)NCC(c2cccs2)N2CCOCC2)c1 (configuration not stated),-7.5,12.0,0.8,1.3%,-17.1,0.9
O=C(CN1C(=O)c2ccccc2C1=O)Nc1cccc(S(=O)(=O)Nc2ccccc2Cl)c1,-67.8*,-15.9,3.0,-1.4%,-9.0,3.0
Cc1ccc(S(=O)(=O)N2CCC(C(=O)Nc3ccc(N4CCOCC4)cc3)CC2)cc1C,-0.7,-21.8,0.2,4.0%,9.4,-6.7
# New compounds follow.
SMILES,Six1-Eya2 inh,D2 potentiator,TRPML1 ag,PINK1 modulator,TRPML1 inh,D2 ag
O=C(CN1CCCc2ccccc21)NCc1ccccc1Cl,-9.1,-17.0,4.1,-1.3%,22.9,0.6
C/C(=N\NC(=O)CNC(=O)c1ccccc1Br)c1ccco1,-1.4,-11.3,0.3,1.1%,-4.4,1.0
C/C(CC(=O)NC1CCCCC1)=N\NC(=O)c1ccc(Br)cc1,3.8,-14.3,-0.7,1.1%,-1.6,-2.1
CCCCCC(=O)N1C[C@@H](O)[C@H](n2cc(C3CC3)nn2)C[C@@H]1c1ccc(Cl)cc1,0.0,3.3,-0.7,-0.6%,16.4,3.8
CC(=O)NCC1COc2ccccc2O1 (configuration not stated),4.0,-8.6,-0.2,0.4%,-3.0,-0.3
O=C(Nc1ccc(C(F)(F)F)cc1)C1CCCN1S(=O)(=O)c1cccc2cccnc12 (configuration not stated),-8.8,-11.7,5.5,-1.6%[38.3 µM],21.8,-1.2
COc1ccc(C(=O)CC2(C(=O)O)CCCCC2)cc1,2.0,-8.1,-0.1,0.7%,4.3,-9.1
CCCCn1nnnc1C1(C)CCC(=O)N1Cc1cc(OC)ccc1OC (configuration not stated),1.6,.,-0.5,-0.5%,.,.
COc1ccc(/C=N/N2CCOCC2)cc1OCc1ccccc1,-14.6,-2.2,-0.3,1.6%,1.9,-9.8
